Screens from PubChem.
Mtb betalactam – beta-lactam sensitization of Mtb H37Rv; M. tuberculosis H37Rv growth with meropenem, percent inhibition; hits of this screen are not shown here; inhibition, % at 25 µM; hit rate 0.27% among 330,000;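 active means about 74% or more and at least 40 points above the plate without the antibiotic, then above 30% in a dose series; inconclusive means first-round hits that could not be retested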;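 further: growth measured after seven days incubation then overnight dye step; 0% = bacteria only wells and 100% = bacteria with antibiotic; twin plates without the antibiotic show which effects depend on it; some results filed as inactive read as strong as hits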
Mtb growth – M. tuberculosis H37Rv growth inhibitors, H37Rv strain (AID 1626); hit rate 0.95% among 220,000; M. tuberculosis H37Rv growth inhibition; higher % means a stronger effect; one-dose inhibition, % at 10 µM; IC50 in µM for titrated hits;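 active means confirmed in a dose series; inconclusive means inhibition above 80% but not taken into the dose series; inactive means below 80% or under 30% at every dose of the series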;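 further: bacteria incubated seven days before Alamar blue readout; 0% = bacteria only wells and 100% = bacteria with antibiotic wells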
RecA splice inh – Mtb RecA intein splicing inhibition; AID 2221; P9WHJ3; cell-free RecA intein splicing, fluorescence; inhibition, %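 (about 9 µM by stock and volumes)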; hit rate 0.75% among 290,000; in the data active means inhibition above about 30%; inconclusive means no clear call, values can overlap the other calls;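 further: 0% = vehicle wells and 100% = reference inhibitor control wells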
Target sequence (P9WHJ3 whole entry, looked up, canonical isoform): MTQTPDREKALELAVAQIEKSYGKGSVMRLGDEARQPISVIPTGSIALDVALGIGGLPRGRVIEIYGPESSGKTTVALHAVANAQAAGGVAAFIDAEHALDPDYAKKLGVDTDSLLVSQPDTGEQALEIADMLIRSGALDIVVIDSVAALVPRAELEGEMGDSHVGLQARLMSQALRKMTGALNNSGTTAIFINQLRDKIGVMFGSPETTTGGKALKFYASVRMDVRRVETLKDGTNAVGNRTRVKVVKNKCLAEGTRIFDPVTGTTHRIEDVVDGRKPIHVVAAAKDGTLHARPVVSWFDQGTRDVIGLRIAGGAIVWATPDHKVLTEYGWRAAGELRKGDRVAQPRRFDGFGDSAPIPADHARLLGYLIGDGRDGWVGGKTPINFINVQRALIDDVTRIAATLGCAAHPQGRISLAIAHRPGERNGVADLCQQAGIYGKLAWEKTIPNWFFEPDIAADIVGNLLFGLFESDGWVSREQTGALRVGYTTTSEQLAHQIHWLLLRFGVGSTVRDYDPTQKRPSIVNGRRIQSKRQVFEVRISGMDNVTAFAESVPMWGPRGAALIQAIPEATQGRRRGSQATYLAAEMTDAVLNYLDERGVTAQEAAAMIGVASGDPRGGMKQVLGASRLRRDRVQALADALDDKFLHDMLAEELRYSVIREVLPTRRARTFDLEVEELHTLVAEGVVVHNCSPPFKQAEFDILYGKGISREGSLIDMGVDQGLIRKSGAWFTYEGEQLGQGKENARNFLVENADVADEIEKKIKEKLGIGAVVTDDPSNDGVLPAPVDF
YopH PTP inh – YopH (Yersinia) phosphatase inhibition | fluorescence Ex485/Em525 | inhibition, %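 (about 10 µM by stock and volumes)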 | hit rate 0.16% among 140,000;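 active means inhibition of 50% or more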;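 further: controls were vehicle for no effect and minimum signal wells for full effect; inactives centre near -20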
Arbovirus anti – blocks arbovirus infection. arbovirus infection cell-based antiviral screen. inhibition, % at 10 µM. hit rate 0.37% among 200,000. AID 1251;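 active means inhibition from about 30%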;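 further: bluetongue infection of BSR cells; cell survival read as ATP light after 72 h; 0% = infected wells without compound and 100% = uninfected wells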
Arbovirus anti repeat – further read-out of Arbovirus anti, marked with its call; inhibition, %; measured here: 10K subset replicate screen; many hits read low in the repeat;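 first of two repeat runs on a subset; 0% = infected and 100% = uninfected wells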
The depositor's hits bear a star. The list is partial. The share of hits here may be higher or lower than overall.

For CN(C)CCN1C(=O)C(=O)/C(=C(/O)c2ccc(F)cc2)C1c1ccccc1 (centres undefined) the results were Mtb betalactam -5, Mtb growth -1%, RecA splice inh -0.6, YopH PTP inh -17 and Arbovirus anti 1.
COc1ccc(NC(=O)NC(C)C2CC3CCC2C3)cc1 (centres undefined) was read as Mtb betalactam 100, Mtb growth 7.4µM*, RecA splice inh -1.1 and Arbovirus anti 2.
For CC/C(Cc1ccccc1)=N\NC(=O)c1cc(C)oc1C the results were Mtb betalactam 3, Mtb growth 5%, RecA splice inh 0.7, YopH PTP inh -27 and Arbovirus anti 4.
CCCOc1ccc(/C=C/C(=O)NCc2ccccc2)cc1 was read as Mtb betalactam 30, Mtb growth 5%, RecA splice inh 0.0, YopH PTP inh -9 and Arbovirus anti 5.
For Cc1ccc(/C=N/NC(=O)Cn2nccc2C)o1 the results were Mtb betalactam -4, Mtb growth -1%, RecA splice inh -0.3, YopH PTP inh -7 and Arbovirus anti 9.
Screening Cc1ccc(OC(C)C(=O)Nc2ccc(C)c(S(=O)(=O)Nc3ccc(C)cc3C)c2)cc1 (centres undefined) returned Mtb betalactam 9, Mtb growth 3%, RecA splice inh 13, YopH PTP inh 1 and Arbovirus anti -17.
Screening N/C(=N\OC(=O)CCCCCN1C(=O)c2ccccc2C1=O)c1ccccn1 returned Mtb betalactam 4, Mtb growth 5%, RecA splice inh -2.8 and Arbovirus anti 2.
For O=C(COC(=O)c1cc(-c2cccs2)nn1-c1ccccc1)Nc1ccc(Cl)c([N+](=O)[O-])c1 the results were Mtb betalactam -1, Mtb growth 0%, RecA splice inh 7.3, YopH PTP inh -5 and Arbovirus anti -7.
CC(C)COP(=O)(c1ccc(N(C)C)cc1)C(O)c1ccccn1 (centres undefined) was read as Mtb betalactam 4, Mtb growth -8%, RecA splice inh -0.8, YopH PTP inh 2 and Arbovirus anti 5.
For Cc1ccc(C)c2nc(SCC(=O)Nc3ccc4c(c3)OCO4)c(C#N)cc12 the results were Mtb betalactam -1 and RecA splice inh -0.3.
Screening O=C(Nc1cccc(F)c1)N1CCC(c2ccccc2)CC1 returned Mtb betalactam 4 and RecA splice inh 38*.
Screening O=C(O)c1cc([N+](=O)[O-])ccc1NCCCc1ccccc1 returned Mtb betalactam 1, Mtb growth -17% and RecA splice inh 6.6.
Screening CN1c2ccccc2Sc2cc(N)ccc21 returned Mtb betalactam 6 and RecA splice inh -2.5.
`O=C(O)CC/C(=N/Nc1ncc(C(F)(F)F)cc1Cl)C(=O)O` gave Mtb betalactam -4, Mtb growth 4%, RecA splice inh -4.8 and Arbovirus anti -4.
Screening Cn1c(COc2ccc([N+](=O)[O-])cc2)nnc1SCC(=O)NCC1CCCO1 (centres undefined) returned Mtb betalactam 3 and RecA splice inh -2.8.
`O=S(=O)(/C(=C/c1ccc(C(F)(F)F)cc1)c1nc2ccccc2[nH]1)c1ccccc1` gave Mtb betalactam 68, Mtb growth 6%, RecA splice inh 64*, YopH PTP inh -29 and Arbovirus anti -37.
Screening Cc1ccccc1C(=O)Nc1ccnn1C1CCN(Cc2ccc(CO)o2)CC1 returned Mtb betalactam -11 and RecA splice inh 4.0.
`COc1ccc(-c2n[nH]c(=S)n2Cc2ccccc2)cc1` gave Mtb betalactam -4 and RecA splice inh 1.0.
CCN=C1S/C(=C/c2ccc(-c3ccc(F)cc3)o2)C(=O)N1CC was read as Mtb betalactam 88 and RecA splice inh 4.7.
CCOC(=O)c1cnc(SCC(=O)Nc2nc(C)c(C)s2)nc1N was read as Mtb betalactam 5, Mtb growth 3%, RecA splice inh -0.4, YopH PTP inh -38 and Arbovirus anti 16.
O=C(NC1CCCC1)C(c1ccccn1)N(C(=O)c1csnn1)c1ccc(F)cc1 (centres undefined) was read as Mtb betalactam -1 and RecA splice inh 0.0.
For COc1ccc(-c2csc(NC(=O)C3COc4ccccc4O3)n2)cc1OC (centres undefined) the results were Mtb betalactam 42, Mtb growth 14%, RecA splice inh 12 and Arbovirus anti 11.
O=C(NC(=S)N1CCCCCC1)c1ccccc1Cl was read as Mtb betalactam 29, Mtb growth -3%, RecA splice inh -6.3 and Arbovirus anti 2.
`O=C(COC(=O)c1ccccc1NCCO)Nc1cc(C(F)(F)F)ccc1N1CCOCC1` gave Mtb betalactam 3 and RecA splice inh -5.3.
For COc1ccc(S(=O)(=O)Oc2c(OC)cc(C(=S)N3CCOCC3)cc2OC)cc1 the results were Mtb betalactam 2 and RecA splice inh -0.5.
Screening Cc1ccc(NC(=O)Cc2nnc(SCC(=O)NC3CCCC3)n2C)cc1 returned Mtb betalactam -4 and RecA splice inh 4.5.
`O=[N+]([O-])c1c(Nc2ccc(O)cc2)cc(Cl)c2nonc12` gave Mtb betalactam 101 and RecA splice inh 95*.
`O=C(CCc1ccccc1)OCCOC(=O)CCc1ccccc1` gave Mtb betalactam 8 and RecA splice inh 6.4.
CCn1cc(C2C(C(=O)Nc3cc(C)ccn3)=C(C)NC3=C2C(=O)CC(C)(C)C3)c(C)n1 (centres undefined) was read as Mtb betalactam -2, Mtb growth 5%, RecA splice inh -20, YopH PTP inh -14 and Arbovirus anti 8.
For Cc1c(-c2c(C#N)c(N)nc3c2CCCCCC3)cnn1C the results were Mtb betalactam -15, Mtb growth 3%, RecA splice inh -0.3, YopH PTP inh -30 and Arbovirus anti -3.
N#CC1(C#N)[C@@H](C(=O)C23CC4CC(CC(C4)C2)C3)C12CCOCC2 was read as Mtb betalactam 5, Mtb growth -3%, RecA splice inh 0.7, YopH PTP inh -12 and Arbovirus anti -1.
O=C(/C=C/c1ccc(F)cc1)c1ccccc1Br was read as Mtb betalactam 95, Mtb growth 29%, RecA splice inh 1.4, YopH PTP inh -10 and Arbovirus anti -37.
`CN=c1scc(C)n1/N=C/c1ccc(O)c(O)c1O` gave Mtb betalactam 10, Mtb growth -6%, RecA splice inh -7.3, YopH PTP inh -4 and Arbovirus anti 9.
`O=S(=O)(Nc1ccc(-c2cnco2)cc1)c1ccccc1` gave Mtb betalactam -7 and RecA splice inh 0.7.
CCCCn1c(=O)c(C(=O)Nc2ccccc2F)c(O)c2ccccc21 was read as Mtb betalactam 8 and RecA splice inh -6.3.
Screening O=C(COc1ccccc1)Nc1ccc2c(c1)nc1n2CCOC1 returned Mtb betalactam 5, Mtb growth -9%, RecA splice inh -0.8, YopH PTP inh -24 and Arbovirus anti 3.
Screening CC(=O)NCC1COc2ccccc2O1 (centres undefined) returned Mtb betalactam -12 and RecA splice inh -2.3.
COc1ccc(/C(N)=N/OC(=O)Cc2ccccc2)cc1 was read as Mtb betalactam 0, Mtb growth 11%, RecA splice inh 3.9, YopH PTP inh -22 and Arbovirus anti -15.
Screening COc1ccc(-c2cc(CC3(C(=O)O)CCN(C(=O)OC(C)(C)C)CC3)on2)c(OC)c1 returned Mtb betalactam 0 and RecA splice inh -0.3.
CCC(=O)N1CCN(c2ccc(Cl)cc2NC(=O)c2ccc([N+](=O)[O-])o2)CC1 was read as Mtb betalactam 98 and RecA splice inh -6.3.

By substructure: the compounds so far with a COOH group (3)
Screening O=C(O)c1cc([N+](=O)[O-])ccc1NCCCc1ccccc1 returned Mtb betalactam 1, Mtb growth -17% and RecA splice inh 6.6.
`O=C(O)CC/C(=N/Nc1ncc(C(F)(F)F)cc1Cl)C(=O)O` gave Mtb betalactam -4, Mtb growth 4%, RecA splice inh -4.8 and Arbovirus anti -4.
Screening COc1ccc(-c2cc(CC3(C(=O)O)CCN(C(=O)OC(C)(C)C)CC3)on2)c(OC)c1 returned Mtb betalactam 0 and RecA splice inh -0.3.

Other results follow.
Screening CC(C)c1ccc(C2c3[nH]c4ccccc4c3C[C@H]3C(=O)N(c4ccccc4C(=O)N4CCC[C@H]4C(=O)O)C(=O)N23)cc1 (some centres undefined) returned Mtb betalactam 4 and RecA splice inh 2.0.
Screening CCO[C@H]1OC(C(=O)NCc2ccccc2)=C[C@@H](C2CC2)[C@@H]1CCCO returned Mtb betalactam -5, Mtb growth 8%, RecA splice inh -0.2 and Arbovirus anti -3.
Cc1ccc(CNC(=O)CN(c2ccc(C)cc2)S(=O)(=O)c2c(C)n[nH]c2C)cc1 was read as Mtb betalactam 4 and RecA splice inh 4.0.
For CCN1CCN(CCNC(=O)Cn2c(=O)c3cccn3c3ccc(F)cc32)CC1 the results were Mtb betalactam -2 and RecA splice inh -1.0.
For Cn1cc(/C=N/Nc2ccccc2)c2ccccc21 the results were Mtb betalactam 93, Mtb growth inconclusive, RecA splice inh 0.4 and Arbovirus anti -30.
`CC(=O)Nc1ccccc1OCc1nnc(-c2ccc(Cl)cc2)o1` gave Mtb betalactam -4, Mtb growth 9%, RecA splice inh 3.4 and Arbovirus anti -10.
`O=C(Nc1ccc2c(c1)OCO2)O[C@@H]1C[C@H]2CCC(=O)N3CC[C@@H](C1)[C@@H]23` gave Mtb betalactam -6 and RecA splice inh -5.9.
CCCCN(CCCC)C(=O)C1CC=CCC1C(=O)O (centres undefined) was read as Mtb betalactam -6, Mtb growth -6%, RecA splice inh -2.7 and Arbovirus anti 6.
Screening O=C(CNc1ccc2ccccc2c1)N/N=C/c1ccc(C(=O)O)cc1 returned Mtb betalactam 93, Mtb growth inconclusive, RecA splice inh 5.8 and Arbovirus anti -2.
COCCN1C(=O)C(O)=C(C(=O)c2cccs2)C1c1ccccc1 (centres undefined) was read as Mtb betalactam 0, Mtb growth -3%, RecA splice inh 0.7, YopH PTP inh -31 and Arbovirus anti 2.
Screening CCOC(=O)CCSCC(=O)Nc1nnc(C)s1 returned Mtb betalactam 1, Mtb growth 1%, RecA splice inh -1.1, YopH PTP inh -22, Arbovirus anti -3 and Arbovirus anti repeat 0.
Cn1c(-c2ccccc2)cc(=O)c2ccccc21 was read as Mtb betalactam 2, Mtb growth 2%, RecA splice inh -1.9, YopH PTP inh -4 and Arbovirus anti 6.
Screening CCCN1CNC(=S)N(c2cccc(C)c2C)C1 returned Mtb betalactam -24, Mtb growth -1%, RecA splice inh 2.1, YopH PTP inh -7 and Arbovirus anti 3.
Screening Cc1cc([N+](=O)[O-])c(C(C)(C)C)cc1N returned Mtb betalactam 2, Mtb growth 6%, RecA splice inh -0.5, YopH PTP inh -11 and Arbovirus anti 1.
Screening CCOc1ccc(NC(=O)CSc2n[nH]c(N)n2)c([N+](=O)[O-])c1 returned Mtb betalactam 4, Mtb growth -2%, RecA splice inh 1.4, YopH PTP inh -28 and Arbovirus anti -6.
For Cc1ccc(C(=O)NNC(=O)c2cc3cc4ccccc4nc3s2)cc1 the results were Mtb betalactam -2, RecA splice inh -0.8, YopH PTP inh -16 and Arbovirus anti -8.
CN(C)/C=N/C(=S)Nc1ccccc1Cl was read as Mtb betalactam -2, Mtb growth 0%, RecA splice inh 2.8 and Arbovirus anti 0.
Cn1c(SCc2nnc(-c3ccccc3)o2)nc2ccccc21 was read as Mtb betalactam -2, Mtb growth -11%, RecA splice inh 3.7 and Arbovirus anti 2.
C#CCOCCOCCOCCNc1nc(N2CCN(C(=O)[C@H](CCCCN)n3cc([C@@H](N)CC(C)C)nn3)CC2)nc(N2CCN(C(=O)[C@H](Cc3cc4ccccc4[nH]3)n3cc([C@@H](N)Cc4ccc(O)cc4)nn3)CC2)n1 was read as Mtb betalactam 87, Mtb growth 59%, RecA splice inh -1.8 and Arbovirus anti -8.
Screening COc1cc(C=O)ccc1OCC(=O)N1CCCC1 returned Mtb betalactam -4, Mtb growth -3%, RecA splice inh 1.7 and Arbovirus anti -1.

3 compounds already listed, sorted by number of heavy atoms, smallest number first:
Screening CCOC(=O)CCSCC(=O)Nc1nnc(C)s1 returned Mtb betalactam 1, Mtb growth 1%, RecA splice inh -1.1, YopH PTP inh -22, Arbovirus anti -3 and Arbovirus anti repeat 0.
`CC(=O)Nc1ccccc1OCc1nnc(-c2ccc(Cl)cc2)o1` gave Mtb betalactam -4, Mtb growth 9%, RecA splice inh 3.4 and Arbovirus anti -10.
Cc1ccc(CNC(=O)CN(c2ccc(C)cc2)S(=O)(=O)c2c(C)n[nH]c2C)cc1 was read as Mtb betalactam 4 and RecA splice inh 4.0.

Next section
Screening Cc1ccccc1C(=O)Nc1ccc(N2CCN(C)CC2)nc1 returned Mtb betalactam -14, Mtb growth -7%, RecA splice inh 0.3 and Arbovirus anti 4.
Screening COc1ccccc1NC(=O)Nc1nc2ccc(S(N)(=O)=O)cc2s1 returned Mtb betalactam 2 and RecA splice inh 0.2.
For CC1CCN(S(=O)(=O)c2ccc(NC(=O)CCN3C(=O)c4ccccc4C3=O)cc2)CC1 the results were Mtb betalactam -6, Mtb growth -1%, RecA splice inh -0.5, YopH PTP inh -26 and Arbovirus anti -2.
O=C(CSc1nnnn1-c1ccccc1)c1ccc(O)cc1O was read as Mtb betalactam 0, Mtb growth -2% and RecA splice inh -0.2.
For CCOC(=O)C1CCCN(C(=O)Nc2ccccc2)C1 (centres undefined) the results were Mtb betalactam 8, Mtb growth 1%, RecA splice inh 0.3, YopH PTP inh -21 and Arbovirus anti 6.
